Compound activity from PubChem.
Ecoli rRNA inh = reduced GFP signal of wild-type E. coli, primary screen, bacterial rRNA inhibitor project, GFP/RFP fluorescence, OD600, single point | 350,000 compounds, 1.6% hits | AID 720706, 2013 | GFP signal change (wild-type ribosome), % (no concentration beside the values) | E. coli WT GFP vs humanized-ribosome RFP mutants, 24 h; stronger effect = lower value; DMSO median 0, no signal -100;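 active = significant combined selectivity score with lowered wild-type GFP, culture density cut under 30%, mutant RFP and density less affected; inactive = any of these conditions unmet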; note: one replicate is shown; some compounds called inactive have numbers as strong as hits
E coli growth = E. coli growth inhibition, primary screen, OD600; Escherichia coli growth, 23 h; stronger effect = lower value; OD600 absorbance (concentration not given with the values); AID 1053175, 2014; 330,000 compounds, 0.21% hits;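 active = OD600 absorbance below the run mean of sample wells minus 3.6 SD, in any replicate, cut at about 0.56 in these data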;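 note: stock transfer was 300 nL into about 60 µL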
FGF22 binding = binders of human FGF22 protein, primary screen, FGF22 synaptogenesis inhibitor project, biophysical, thermal shift, single point; calls only at 9.99 µM; AID 651658, 2012; Fibroblast growth factor 22 (Homo sapiens), Q9HCT0; 340,000 compounds, 1.5% hits; recombinant FGF22 thermal shift, SYPRO orange fluorescence; percent of sucrose octasulfate shift, DMSO zero;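 active = melting point raised past a set limit in the mean and every replicate; three in four hits are not shown here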
Target sequence (Q9HCT0 whole entry, looked up): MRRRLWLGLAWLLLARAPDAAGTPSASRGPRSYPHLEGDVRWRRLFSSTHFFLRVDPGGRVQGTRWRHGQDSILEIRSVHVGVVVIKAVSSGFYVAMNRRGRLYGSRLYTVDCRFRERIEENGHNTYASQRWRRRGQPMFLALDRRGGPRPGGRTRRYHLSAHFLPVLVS
AF4-AF9 inh = inhibitors of AF4 peptide binding to AF9, primary screen, biochemical, AlphaScreen, biotin-AF4 peptide, FLAG-AF9, single point; 350,000 compounds, 0.47% hits; AID 651704, 2012; inhibition, % at 10 µM; Protein AF-9 (Homo sapiens), P42568;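 active = every replicate reaching a set inhibition limit, whatever the replicate mean, cut at about 25% in these data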;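 note: 0% = plate neutral control median and 100% = total signal loss; the record names both 10 and 1 µM as test concentration; the first replicate is given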
UCH37 inh = inhibitors of human UCH37 deubiquitinase, primary screen, biochemical, Ub-AMC cleavage, fluorescence; AID 588478, 2011; inhibition, % (test concentration not listed); purified proteasome/UCH37; 330,000 compounds, 0.33% hits;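 active = mean of two replicates above 20%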;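 note: 0% = compound-free wells with enzyme and 100% = wells lacking proteasome; stock transfer was 100 nL into about 20 µL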
Target sequence (Q9Y5K5 whole entry, looked up): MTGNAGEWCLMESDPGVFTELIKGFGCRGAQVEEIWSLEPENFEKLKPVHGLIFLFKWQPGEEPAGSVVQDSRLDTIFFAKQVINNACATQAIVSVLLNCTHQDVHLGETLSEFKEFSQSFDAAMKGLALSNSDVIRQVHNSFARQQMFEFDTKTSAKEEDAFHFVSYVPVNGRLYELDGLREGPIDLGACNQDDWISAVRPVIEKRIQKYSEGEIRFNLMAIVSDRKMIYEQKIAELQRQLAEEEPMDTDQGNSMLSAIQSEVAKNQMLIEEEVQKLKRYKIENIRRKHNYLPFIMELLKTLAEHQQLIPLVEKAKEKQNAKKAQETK
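System: Proteasome-associated human UCH37 deubiquitinase; Input: 0.15 nM proteasome in added enzyme buffer; Also added: Ub-AMC substrate from 1 µM stock; Incubation: 30 min compound-proteasome preincubation then 25 min substrate reaction, room temperature; Detection: fluorescence, ex 355 nm, em 460 nm; Read-out: % inhibition of Ub-AMC cleavage fluorescence; Benchmarks: no-proteasome and no-compound wells.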
T cruzi repl = inhibitors of intracellular T. cruzi growth, primary screen, luminescence, NIH3T3 host cells; AID 1885, 2009; 300,000 compounds, 1.4% hits; inhibition, % (concentration not given with the values); T. cruzi beta-gal in NIH3T3, 90 h;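 active = mean inhibition across valid replicates above about 55%, limit read from the data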;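 note: signal also drops with host cell toxicity which is not excluded here; 0% = plate median of DMSO wells and 100% = zero luminescence signal; higher percent means less beta-gal luminescence so fewer parasites; stock transfer was 50 nL into about 50 µL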
Beta apoptosis = inhibitors of cytokine-induced beta cell apoptosis, primary screen, luminescence. protection from apoptosis, % (no concentration beside the values). 300,000 compounds, 0.8% hits. INS-1E cytokine-induced death, ATP luminescence, 48 h; percent of positive-control rescue, neutral wells zero. AID 435005, 2010;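 active = all replicates at 75% or more, or half of them and the mean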;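 note: 0% = cytokine-treated negative control wells and 100% = positive control rescue; higher means more ATP so stronger rescue from cytokine killing; wells of about 40 µL received 100 nL stock; the first replicate is given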
A1 inh = caspase 3/7 activation in MEF A1-2A-BIM cells, primary screen, A1 inhibitor project, cell-based, luminescence, HTS; 330,000 compounds, 0.066% hits; Caspase-Glo 3/7 luminescence, 3 h; percent of clofoctol response, vehicle zero; caspase activation, % (no concentration beside the values);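 active = over half of replicate activation scores above 10%, or exactly half above 10 with the replicate mean above 10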;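 note: wells of about 30 µL received 50 nL stock; many hits fall short of the cut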
Ecoli rRNA inh OD600 = recorded beside Ecoli rRNA inh, whose call it bears; OD600 change, %; measured here: OD600 growth;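 optical density of the mix in the first replicate; 0 = DMSO median and -100 = no signal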
Ecoli rRNA inh RFP = also measured in Ecoli rRNA inh; calls as there; RFP signal change, %; measured here: RFP humanized mutant strains;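 first replicate; 0 = DMSO median and -100 = no signal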
The depositor's hits bear a star; i = inactive; . = not tested or not shown; & = joins results of further samples.

molecule	Ecoli rRNA inh	Ecoli rRNA inh OD600	Ecoli rRNA inh RFP	E coli growth	FGF22 binding	AF4-AF9 inh	UCH37 inh	T cruzi repl	Beta apoptosis	A1 inh
CC(C)n1c2ccccc2c2nnc(SCC(=O)Nc3ccccc3C(=O)O)nc21	-42	-54	-7.1	0.66	i	-2.5	16	-8	-6	0.5
CCOC(=O)C1(CC2CCCCO2)CCN(Cc2nccn2-c2cccc(C)c2)CC1 (stereo not given)	4	-22	1.3	0.68	i	-2.1	7.2	4	6	-0.5
CCOC(=O)C1(CC2CCCCO2)CCN(S(=O)(=O)c2c(C)nn(C)c2C)CC1 (stereo not given)	3	7	0.0	0.71	i	-13	3.7	5	-8	-0.2
CSc1ccc(/C=C(/NC(=O)c2ccc(C)cc2)C(=O)Nc2cccc(C)c2)cc1	3	10	4.2	.	i	3.2	1.0	-10	-3	0.8
O=C(CSc1ncnc2ccccc12)NCCCO	.	.	.	0.8	.	.	6.3	.	0	-0.5
Cc1ccc(-c2noc(-c3ccccc3C(=O)NCc3ccco3)n2)cc1	6	12	0.9	0.66	i	-2.6	1.7	-13	0	-0.2
C/C(=N\NC(=O)c1ccccn1)c1ccc(Cl)cc1	.	.	.	.	i	-0.2	.	0	4	-7.8
Cc1noc(C)c1S(=O)(=O)NC1CCN(Cc2ccccc2)CC1	11	-5	-0.6	0.8	i	-1.2	-1.4	1	7	-0.4
CC(C)[C@@H](C(=O)NCc1ccco1)N1C(=O)N2CCc3c([nH]c4ccccc34)[C@@]2(C)C1=O	.	.	.	0.71	i	6.0	6.1	19	-6	0.7
O=C(O)c1ccc(-c2ccccc2)[nH]c1=O	8	2	1.0	0.69	i	-11	-110	-4	1	-0.5
CCOc1ccc(NC(=S)N2CCCCCC2)cc1	4	-11	0.7	0.67	i	3.3	0.4	-10	-3	0.0
O=S(=O)(NCc1ccccc1)[C@@H]1CC2C=CC1C2 (stereo not given in full)	5	-2	-1.3	.	i	-1.5	1.2	.	0	0.5
CC(C)(C)OC(=O)N[C@@H](C(=O)OC(C)(C)C)c1ccc(Br)cc1	-4	-9	-0.7	.	i	-1.2	0.9	.	6	0.2
O=S(=O)(NC1=NCCCCC1)c1ccc(Cl)cc1Cl	2	-3	3.1	0.72	i	1.2	0.8	.	-3	0.9
CN1CCN(c2nc(Nc3ccc(O)cc3)nc3ccccc23)CC1	-22*	2.6*	1.8*	0.64	i	19	3.2	41	-12	-0.7
O=C(CN1CCN(C(c2ccccc2)c2ccccc2)CC1)N1CCOCC1	5	0	-2.5	0.73	i	-1.3	5.1	-10	4	0.4
OCCNc1nc2ccccc2nc1NCCO	.	.	.	0.72	i	-0.6	-162	-12	-6	-0.5
COc1ccc(OC)c(/C=N/NC(=O)Cn2ccnc2C)c1	23	2	0.2	.	i	1.8	.	-12	-5	0.5
CC(CCc1ccccc1)NC(=O)c1cccc([N+](=O)[O-])c1 (stereo not given)	.	.	.	0.73	.	.	3.3	7	2	1.1
CCN1CCN(C(=O)c2cccc(OC3CCN(S(=O)(=O)N(C)C)CC3)c2)CC1	9	11	4.4	0.68	i	-1.1	1.7	-5	3	-0.2
Cc1ccc(N=Nc2ccc(O)c(P(=O)(c3ccccc3)c3ccccc3)c2)cc1	19	6	-0.9	0.69	i	-1.3	0.8	12	0	0.7
Cc1ccc(NC(=O)COC(=O)[C@H](C)N2C(=O)C3CC=CCC3C2=O)cc1S(=O)(=O)N(C)C (stereo not given in full)	-4	0	4.2	0.69	i	0.3	2.5	-5	-3	0.6
CNC(=O)c1nnn(Cc2ccccc2)c1NC(C)=O	-11	5	2.7	0.72	.	.	-0.9	-25	-2	0.3
O=C(NCCCl)Nc1cc([N+](=O)[O-])ccc1Cl	9	7	-0.6	0.66	i	3.6	0.8	-7	-3	0.6
COc1ccc(NC(=O)Nc2cccc3c2O[C@H](CN(C)C(=O)Nc2ccc(OC)cc2)[C@@H](C)CN([C@H](C)CO)C3=O)cc1	2&5	-2&5	-0.7&3.7	0.77	i	-4.3&-1.2	2.4	.	3	-0.1
CCCSc1ccc([C@@H]2[C@H]3C(=O)N(C)C(=O)[C@H]3[C@]3(C(=O)OC)CCCN23)cc1OC	4	-5	3.1	.	i	0.4	3.3	.	-5	-0.3
COc1ccc(C(=O)CSc2ccc(-c3ccc(C)cc3)nn2)cc1	.	.	.	0.67	.	.	1.3	26	-7	-0.5
Cn1c(=O)c2c(ncn2CCOc2ccc(F)cc2)n(C)c1=O	5	9	-2.1	0.68	i	0.8	2.0	4	-1	0.7
NC(=O)c1ccccc1NC(=O)CSc1nc2c(c(=O)[nH]1)CCCC2	-2	-5	1.9	0.67	i	-0.4	2.6	-18	-10	0.3
O=C(CSc1nnc(-c2ccncc2)n1-c1ccc(Cl)cc1)NCc1cccs1	.	.	.	0.73	.	.	1.9	-2	0	-0.6

Entries above with a furan ring, fused or not (two):
molecule	Ecoli rRNA inh	Ecoli rRNA inh OD600	Ecoli rRNA inh RFP	E coli growth	FGF22 binding	AF4-AF9 inh	UCH37 inh	T cruzi repl	Beta apoptosis	A1 inh
Cc1ccc(-c2noc(-c3ccccc3C(=O)NCc3ccco3)n2)cc1	6	12	0.9	0.66	i	-2.6	1.7	-13	0	-0.2
CC(C)[C@@H](C(=O)NCc1ccco1)N1C(=O)N2CCc3c([nH]c4ccccc34)[C@@]2(C)C1=O	.	.	.	0.71	i	6.0	6.1	19	-6	0.7

Continued:
molecule	Ecoli rRNA inh	Ecoli rRNA inh OD600	Ecoli rRNA inh RFP	E coli growth	FGF22 binding	AF4-AF9 inh	UCH37 inh	T cruzi repl	Beta apoptosis	A1 inh
COc1ccc(S(=O)(=O)NC2CCCCC2)cc1-n1cnnn1	8	-8	0.1	0.67	i	0.3	0.7	-9	1	-0.4
Cc1cc(C(=O)O/N=C(\N)c2ccc(C(C)(C)C)cc2)no1	12	11	0.0	.	i	1.5	.	5	3	0.7
CC(=O)Nc1ccc(OCCCNC(=O)c2c(-c3ccccc3)noc2C)cc1	-4	5	1.6	0.71	i	5.7	2.4	-4	8	-0.2
COc1ccc(CN2CCNC(=O)C2CC(=O)N(C)Cc2ccon2)c(OC)c1 (stereo not given)	-1	3	4.3	0.74	i	0.9	-0.3	-7	1	0.5
O=C(NC(NC(=S)Nc1ccc(Cl)c(Cl)c1)C(Cl)(Cl)Cl)c1ccco1 (stereo not given)	.	.	.	0.62	.	.	-4.6	4	10	0.1
CCCn1c(N)c(N(CCOC)C(=O)c2ccccc2)c(=O)[nH]c1=O	4	8	-2.1	0.71	i	0.3	0.7	-7	-3	-0.3
COCCN1C(=O)C(C(=O)OC)CC2=C1CC(C)(C)CC2=O (stereo not given)	0	11	-4.1	0.71	i	-1.0	1.9	.	.	.
O=C(c1cccc(S(=O)(=O)N2CCCCC2)c1)N1CCN(Cc2ccccc2)CC1	1	-7	-2.5	0.72	i	-13	5.9	.	-6	0.8
Cc1ccc2c(c1)C(=O)N1[C@H]3c4cc(Cl)ccc4OC[C@@H]3[C@H](c3ccccc3)[C@]1(C)C(=O)N2	12	8	3.4	0.83	i	6.6	0.4	.	-5	0.3
CC(C)c1ccc(/C=N/N2CCCCC2)cc1	18	22	36	.	.	-1.0	.	26	3	-2.5
Clc1ccccc1OCCCCn1ccnc1	.	.	.	0.68	.	.	3.0	63*	1	-1.0
COc1ccc(S(=O)(=O)N2CCC(C(=O)Nc3cc(Cl)ccc3N3CCOCC3)CC2)cc1OC	9	-1	-1.8	0.66	i	11	3.1	5	-3	1.3
NC(=O)CC(NC(=O)c1ccc(Br)cc1)c1ccc(N2CCCCCCC2)c([N+](=O)[O-])c1 (stereo not given)	5	5	18	0.72	i	2.4	2.9	21	1	0.9
Oc1[nH]c2ccccc2c1C=Nc1ccccc1	16	19	2.2	0.72	i	.	-8.1	2	3	-6.2
Fc1ccc(-n2cc(-c3ccccc3)c3c(=S)nc[nH]c32)cc1	-57	-79	-17	.	i	20	.	8	20	0.1
C=CCn1c(=O)c2c(C)c(C)sc2n2c(Nc3ccc(OC)cc3)nnc12	.	.	.	0.67	.	.	0.5	4	2	-0.9
O=C(COc1ccc(F)cc1)Nc1c(C(=O)N2CCC(N3CCCCC3)CC2)oc2ccccc12	4	9	3.1	0.7	i	6.7	3.3	-2	-2	-0.5
Cc1ccc(S(=O)(=O)N2CCCCC2C(=O)O)s1 (stereo not given)	0	13	2.2	0.71	i	-2.5	4.0	-4	2	-0.4
O=C(O)CC(SCC(=O)Nc1ccc(Cl)c(S(=O)(=O)N2CCOCC2)c1)C(=O)O (stereo not given)	20	9	-8.9	0.68	.	9.1	1.9	-18	-8	-0.3
COc1ccc(-n2c(SCCC#N)nnc2-c2cc(Cl)ccc2OC)cc1Cl	.	.	.	0.72	.	.	-1.3	19	0	0.2
CC(C)Cn1c(N)c(C(=O)COC(=O)[C@@H]2CCCN2C(=O)c2cccs2)c(=O)n(C)c1=O	-13	-15	2.6	0.65	i	2.8	5.4	0	.	-0.8
COc1ccc(N/C(N)=N/c2nc(CSc3nnc(C)s3)cc(=O)[nH]2)cc1	16	14	2.9	0.69	.	0.1	1.0	-56	5	0.1

A portion of the library; the hit share may differ from the screen's.
